CDC25B CDK2 inh: human CDC25B-CDK2/CyclinA binding inhibition | P30305+P24941 | HTRF CDC25B-CDK2/CyclinA binding, anti-His/anti-Flag; hits give high values | z-score (concentration not given with the values) | hit rate 0.72% among 94,000 | AID 1259370;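 also: score is relative to mean and SD of negative controls; strong numbers were not always called active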
TAR Tat displ: HIV-1 TAR-Tat binding disruption; HIV-1 TAR RNA, Tat peptide displacement FRET; hits give high values; AID 1259389; hit rate 0.6% among 100,000; z-score (concentration not given with the values);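 also: score is relative to mean and SD of negative controls; some compounds called inactive have numbers as strong as hits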
Active calls of the source: *; . = no result given; & = joins results of further samples.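 The calls were made as follows: active = z-score from 3 up in half or more of its runs; inactive = the rest.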

Preview:
Order of values: CDC25B CDK2 inh	TAR Tat displ
(1) Cc1cccc(NC(c2ccccc2F)c2ccc3ccc(C)nc3c2O)n1 (stereo unspecified)
→ -1.2	-0.37
(2) O=C(C1CCN(c2nc(-c3ccc(Cl)cc3)no2)CC1)N1CCN(c2ncccn2)CC1
→ .	1.08

All compounds of this part, repeating the preview:
Order of values: CDC25B CDK2 inh	TAR Tat displ
(1) Cc1cccc(NC(c2ccccc2F)c2ccc3ccc(C)nc3c2O)n1 (stereo unspecified)
→ -1.2	-0.37
(2) O=C(C1CCN(c2nc(-c3ccc(Cl)cc3)no2)CC1)N1CCN(c2ncccn2)CC1
→ .	1.08
(3) O=c1cc(-c2ccc(O)cc2)oc2cc(O[C@@H]3O[C@H](CO)[C@@H](O)[C@H](O)[C@H]3O[C@@H]3OC[C@](O)(CO)[C@H]3O)cc(O)c12
→ .	1.01
(4) CCCCC1C(=O)N(c2ccccc2)N(c2ccccc2)C1=O
→ 1.06	1.43
(5) CC1Sc2ccc(S(=O)(=O)N3CCC(C(=O)N4CCc5ccccc5C4)CC3)cc2NC1=O (stereo unspecified)
→ .	1.09
(6) CCCCCCc1ccc(O)cc1O
→ .	-0.19
(7) COc1ccc2ccc(=O)oc2c1
→ .	-2.28
(8) Cc1cccc(C)c1NC(=O)C1CCCCN1C (stereo unspecified)
→ .	0.03&0.16
(9) Cn1c(=O)c2c(ncn2CCO)n(C)c1=O
→ .	2.85
(10) CC(=O)Nc1ccccc1
→ .	0.9
(11) COc1ccccc1OCCNCC(O)COc1cccc2[nH]c3ccccc3c12 (stereo unspecified)
→ -1.37	0.91&0.07&1.12
(12) C#C[C@]1(O)CCC2C3CCC4=CC(=O)CC[C@@H]4C3CC[C@@]21CC (stereo partly specified)
→ .	-0.14
(13) Cc1cccc2nc(-c3ccccn3)c(Nc3ccccc3)n12
→ 0.32	.
(14) Cc1ccccc1Cc1c(C)nc2c(-c3ccccc3)c(C)[nH]n2c1=O
→ -1.75	1.56
(15) COc1ccc(-c2cc(=O)c3c(OC)c(OC)c(OC)cc3o2)cc1OC
→ .	1.13
(16) Nc1c2ccccc2nc2ccccc12 (tested in a mixture with another compound)
→ .	-0.12
(17) CCOC(=O)C1C2C=CC3(CN(c4ccccc4C)C(=O)C13)O2 (stereo unspecified)
→ 0.66	0.73
(18) CN(C)C(=O)[C@H](O)[C@H](Cc1ccccc1)NC(=O)c1cc2cc(Cl)ccc2[nH]1
→ -1.14	.
(19) O=C(Nc1c(-c2cccs2)nc2ccccn12)c1ccc(Cl)cc1
→ -1.58	.
(20) CC(C)[C@@H]1CC[C@@H](C)CC1=O
→ .	1.31
(21) COc1ccc(CN2CCN(C(c3ccc(F)cc3)c3ccc(F)cc3)CC2)c(OC)c1OC
→ .	2
(22) Cc1ccc(Nc2nc3ccccc3c3nnc(C)n23)c(C)c1
→ .	1.15
(23) O=C(CSc1nnc2ccccn12)Nc1nc(-c2ccccc2)ns1
→ -0.55	.
(24) CCc1cncnc1N1CCN(Cc2nc3ccc(C(F)(F)F)cc3[nH]2)CC1
→ -0.69	.
(25) Cn1c(=O)n(-c2ccc(C(C)(C)C#N)cc2)c2c3cc(-c4cnc5ccccc5c4)ccc3ncc21
→ .	1.06
(26) O=C1CSC(c2ccc3cccc(O)c3n2)N1c1ccc(Cl)cc1 (stereo unspecified)
→ -1.66	1.35
(27) CCC(=O)O[C@]1(C(=O)SCF)[C@H](C)C[C@H]2[C@@H]3C[C@H](F)C4=CC(=O)C=C[C@]4(C)[C@@]3(F)[C@@H](O)C[C@@]21C
→ .	-1.38
(28) CCCCCC(=O)O[C@]1(C(C)=O)CCC2C3CCC4=CC(=O)CC[C@]4(C)C3CC[C@@]21C (stereo partly specified)
→ .	0.8
(29) CC1OC(OCC2OC(Oc3cc(O)c4c(c3)OC(c3ccc(O)cc3)CC4=O)C(O)C(O)C2O)C(O)C(O)C1O (stereo unspecified)
→ .	3.29
(30) CCOC(=O)NNc1nncc2ccccc12
→ .	0.55

Sorted by formula weight (ascending): four of the compounds above
Order of values: CDC25B CDK2 inh	TAR Tat displ
(16) Nc1c2ccccc2nc2ccccc12 (tested in a mixture with another compound)
→ .	-0.12
(22) Cc1ccc(Nc2nc3ccccc3c3nnc(C)n23)c(C)c1
→ .	1.15
(19) O=C(Nc1c(-c2cccs2)nc2ccccn12)c1ccc(Cl)cc1
→ -1.58	.
(24) CCc1cncnc1N1CCN(Cc2nc3ccc(C(F)(F)F)cc3[nH]2)CC1
→ -0.69	.

Molecules above containing two or more sulfur atoms (two):
Order of values: CDC25B CDK2 inh	TAR Tat displ
(5) CC1Sc2ccc(S(=O)(=O)N3CCC(C(=O)N4CCc5ccccc5C4)CC3)cc2NC1=O (stereo unspecified)
→ .	1.09
(23) O=C(CSc1nnc2ccccn12)Nc1nc(-c2ccccc2)ns1
→ -0.55	.

Back to the main list with the four entries that preceded the break.
Order of values: CDC25B CDK2 inh	TAR Tat displ
(27) CCC(=O)O[C@]1(C(=O)SCF)[C@H](C)C[C@H]2[C@@H]3C[C@H](F)C4=CC(=O)C=C[C@]4(C)[C@@]3(F)[C@@H](O)C[C@@]21C
→ .	-1.38
(28) CCCCCC(=O)O[C@]1(C(C)=O)CCC2C3CCC4=CC(=O)CC[C@]4(C)C3CC[C@@]21C (stereo partly specified)
→ .	0.8
(29) CC1OC(OCC2OC(Oc3cc(O)c4c(c3)OC(c3ccc(O)cc3)CC4=O)C(O)C(O)C2O)C(O)C(O)C1O (stereo unspecified)
→ .	3.29
(30) CCOC(=O)NNc1nncc2ccccc12
→ .	0.55
(31) CCCCOc1ccc(CC(=O)NO)cc1
→ .	1.42
(32) COc1c(O)cc2c(c1O)[C@H]1O[C@H](CO)[C@@H](O)[C@H](O)[C@@H]1OC2=O
→ .	1.03
(33) COc1cc([C@H]2Oc3cc([C@H]4Oc5cc(O)cc(O)c5C(=O)[C@@H]4O)ccc3O[C@@H]2CO)ccc1O
→ .	1.03
(34) Cc1ccnc(NC(c2cccc(O)c2)c2ccc3ccc(C)nc3c2O)c1 (stereo unspecified)
→ -3.47	.
(35) CC1(C)Cc2c(sc(N)c2C(N)=O)CO1
→ 0.4	-0.25
(36) Nc1c2c(nc3ccccc13)CCCC2O (stereo unspecified)
→ .	3.16
(37) Nc1ncnc2nc[nH]c12
→ .	0.58
(38) CCn1cc(C(=O)O)c(=O)c2cc(F)c(N3CCNCC3)nc21
→ .	0.71
(39) CC(=O)Nc1ccc(S(=O)(=O)Nc2cc(C)on2)cc1
→ -0.1	.
(40) CC(=O)N1CC(O)C[C@H]1C(=O)O (stereo partly specified)
→ 0.18	.
(41) Cc1cc(C)cc(OCC2CNC(=O)O2)c1 (stereo unspecified)
→ .	1.04

Bioassay records as filed in PubChem.

These rows are one share of the data; rates above refer to the full screens.
